# VACV E9 pol inh – vaccinia E9 polymerase processive synthesis inhibitors, primary screen, biochemical, absorbance. Vaccinia virus DNA polymerase (E9) processive complex. in vitro processive DNA synthesis, absorbance read-out; hits give low values; some inactives read as strong as hits. normalized absorbance, % (test concentration not listed). actives 0.94% (n = 46,000). AID 493162, 2011;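 active = replicate mean up to 90% and picked by the depositor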;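 also: 100% = median of the test wells of a plate; 100 nL library stock went into each well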
# * marks the source's active call; other numbers are inactive results. The list is partial, so the mix of outcomes need not match the whole.
# A first look:
SMILES,VACV E9 pol inh
Cc1c2c(nc3c(C(=O)NC4CCCC(C)C4C)cnn13)CCCC2 (stereo not drawn),97
Cn1nccc1C(=O)NCCN1C(=O)OC2(CCCCC2)C1(C)O (stereo not drawn),100

# The whole of this part (from the top)
SMILES,VACV E9 pol inh
Cc1c2c(nc3c(C(=O)NC4CCCC(C)C4C)cnn13)CCCC2 (stereo not drawn),97
Cn1nccc1C(=O)NCCN1C(=O)OC2(CCCCC2)C1(C)O (stereo not drawn),100
CCc1cc2c(=O)c(-c3cscn3)coc2c(CN(C)C)c1O,97
COc1cccc(OCC(=O)Oc2ccc(C(=O)c3ccccc3)cc2)c1,100
COc1ccc(-n2c(O)c(C=NCc3ccccc3)c3ccccc3c2=O)cc1,95
O=S(=O)(/N=C/c1c(O)ccc2ccccc12)c1cccs1,95
Nc1cc(C(F)(F)F)ccc1N1CCOCC1,88
Fc1ccc(Nc2c(-c3ccccc3)nc3ccccn23)cc1,100
O=C(COc1ccccc1)Nc1nnc(-c2ccc(Cl)cc2)o1,94
O=C(c1c(-c2ccccc2)oc2ccc(O)cc12)N1CCCCC1,100
CC(C)c1ccc(OCC(=O)NC(C)c2ccccc2)cc1 (stereo not drawn),88
Cc1ccc(C)n1-c1sccc1C(=O)CC#N,110
Fc1ccccc1CCNc1c2c(nc3ncnn13)CCCC2,100
CN(C)c1cccc(N2C(=S)SC3CS(=O)(=O)CC32)c1 (stereo not drawn),99
O=S(=O)(c1ccc(F)cc1)N1CCCc2ccccc21,100
C=CCN1C(=O)/C(=C2\SC(=S)N(CCc3ccc(OC)cc3)C2=O)c2ccccc21,96
O=C(Nc1cccc(-c2nc3ccccc3o2)c1)C1=COCCO1,95
Cc1ccc(-c2nnc3c4cnn(-c5ccccc5)c4ncn23)cc1,100
FC(F)(F)c1ccc(N=Cc2ccco2)cc1,106
CCN1C(=O)/C(=C/C=C2\N(C)c3c(ccc4cccnc34)C2(C)C)SC1=S,101
Fc1ccc(C=Nc2ccc(I)cc2)cc1,101
Cc1ccc(C(=O)Oc2cc(C)nn2Cc2ccccc2)cc1,102
Cc1ccc(C(=O)C(C)OC(=O)c2cccs2)cc1 (stereo not drawn),128
CCn1c(-c2ccccc2)ccc1C(O)C(F)(F)F (stereo not drawn),93
Cc1c2cnn(CC(=O)NC3CCCc4ccccc43)c(=O)c2c(C)n1Cc1ccc(Cl)cc1 (stereo not drawn),101
O=C(CCOc1ccccc1)N1CCN(c2nc3ccccc3s2)CC1,88
COc1ccc(CCNC(=O)C(c2ccccc2)c2ccccc2)cc1OC,99
CCN(CC)CCN1C2=C(C(=O)CC(C)(C)C2)C(c2cccc(F)c2)C2=C1CC(C)(C)CC2=O,100
O=C(O)CN(CCCc1ccccc1)CC(=O)O,93
CCOc1ccc2c(c1)sc(N)[n+]2Cc1cc(C)cc2cccnc12,96
COCc1cc(=O)[nH]c(SCC(=O)C(C)(C)C)n1,100
O=C1CCCN1CCP(=O)(O)CN1CCCCC1,100
N#C/C(=C\N1CCCCC1)S(=O)(=O)c1ccc(Cl)cc1,93
COc1ccc2[nH]cc(CCNC(C)=O)c2c1,100
Cc1ccc(C(O)CN)cn1 (stereo not drawn),100
O=C1C=C(N2CCOCC2)C(=O)c2ccccc21,99
COCc1cc(C)nc2sc3c(=O)n(-c4ccccc4)nnc3c12,100
O=C(O)c1cccc(N2C(=O)CCC2=O)c1,101
c1ccc(N2CCN(c3ncccn3)CC2)cc1,110
CCNc1c(N)c(=O)oc2ccccc12,100
CC(C)(C)S(=O)(=O)c1ccc(S(=O)(=O)C(C)(C)C)cc1,100
O=C(Cn1ccc2ccccc2c1=O)NCC(=O)NC1CCCCCC1,96
COCCN1C=C(C(=O)OC)C(c2cccs2)C(C(=O)OC)=C1,99
COc1ccc(NC(=O)CCc2cc(OC)c(OC)c(OC)c2)cc1,104
CCc1ccc(OC(=O)c2cncc(Br)c2)cc1,102
CC(C)N1C(=O)S/C(=C/c2ccc(Sc3nc4ccccc4[nH]3)o2)C1=O,101
CCc1cc(=O)oc2c(C)c3occ(-c4ccc(Cl)cc4)c3cc12,100
O=C(NC1(C(F)(F)F)Oc2ccc(Cl)cc2O1)N1CCCCC1 (stereo not drawn),90
Cc1ccc(S(=O)(=O)n2cnc3cc(C)c(C)cc32)c(C)c1,100
COc1ccn(C)c(=O)c1C#N,100

# New compounds follow:
SMILES,VACV E9 pol inh
O=C1Nc2ccccc2SC1CO (stereo not drawn),101
CCN(c1ccc(C)c(C)c1)S(=O)(=O)c1cc(Br)cc2c1N(C(C)=O)C(C)C2 (stereo not drawn),106
CCCN1C(=O)c2ccccc2CC1(C)C(=O)NC1CCCCCC1 (stereo not drawn),108
COc1ccc(CC2C(=O)NC(=O)N(c3cccc(Cl)c3)C2=O)cc1 (stereo not drawn),101
NC(=O)CC(NC(=O)c1ccccc1)C(=O)O (stereo not drawn),102
COc1ccc(Nc2ccccc2N)cc1,96
COC(=O)C1CCCNC1=O (stereo not drawn),100
CCc1c(C)[nH]c(=S)c(C#N)c1C,100
CCOC(=O)c1nc(C)sc1-c1ccnn1S(=O)(=O)c1ccc(Cl)cc1Cl,99
O=C1CCCC(=O)C1C(c1ccc(-c2cc(C(F)(F)F)ccc2Cl)o1)C1C(=O)CCCC1=O,99
CCC1CCCCN1CC(O)COc1ccc2c(c1)OCO2 (stereo not drawn),101
Cc1nc2cc(CCO)ccc2s1,105
CC(=C\c1ccccc1)/C=C1/SC(=S)N(CCC(=O)Nc2nc(C)cs2)C1=O,104
N#Cc1c(S/C=C(\O)c2ccccc2)nc2c(c1C(F)(F)F)CCCC2,109
CCOC(=O)c1sc(=NC(=O)c2ccc(OCC)cc2)n(C)c1C,100
COc1ccc(CCNC(=O)CSc2ncnc3ccccc23)cc1OC,96
COc1ccc(C2C(C#N)=C(N)OC(C3CC3)=C2C#N)cc1 (stereo not drawn),104
O=c1n(CCSc2nnnn2-c2ccccc2)nnn1-c1ccccc1,100
O=c1oc(-c2ccccc2Br)nc2sc3c(c12)CCC3,99
CCOc1ccccc1C(=O)NCc1cn2ccccc2n1,95
O=S(=O)(NCc1nc(-c2ccccc2)no1)c1ccccc1,104
COc1ccc(NC(=O)C(C)n2sc3ccccc3c2=O)cc1 (stereo not drawn),88
COc1ccc(N2COc3ccc(OC)cc3C2)cc1,105
COC(=O)c1cc2sc(Cl)cc2n1CC(=O)N1CCCc2ccccc21,100
O=C(O)COCC(=O)N1CCN(c2cc(C(F)(F)F)nc3ccccc23)CC1,102
O=C(/C=C/c1ccco1)NCc1ccccc1C(F)(F)F,91
Nc1nc(C2CCCCC2)cs1,91
CN(CCc1ccccn1)C(=O)Nc1ccc(C(C)(C)C)cc1,113
O=C(Cc1nc2ccccc2[nH]1)Oc1ccccc1,100
O=C(NCC1CCCO1)C1CC(c2ccc(F)cc2)=NO1 (stereo not drawn),100

# Shown field by field: 4 of the compounds above
> O=S(=O)(NCc1nc(-c2ccccc2)no1)c1ccccc1
  VACV E9 pol inh: 104

> COc1ccc(NC(=O)C(C)n2sc3ccccc3c2=O)cc1 (stereo not drawn)
  VACV E9 pol inh: 88

> COc1ccc(N2COc3ccc(OC)cc3C2)cc1
  VACV E9 pol inh: 105

> COC(=O)c1cc2sc(Cl)cc2n1CC(=O)N1CCCc2ccccc21
  VACV E9 pol inh: 100

# The list goes on:
SMILES,VACV E9 pol inh
COc1ccc2c(c1)C(=O)/C(=C/c1ccc(N(C)C)cc1)CC2,101
CCc1cccc(C)c1NC(=O)C1COc2ccccc2O1 (stereo not drawn),100
COc1ccc2oc(=O)c(-c3ccccc3)cc2c1,104
CCOC(=O)c1sc2nc(C)nc(N3CCC(C)CC3)c2c1C,100
c1ccc2c(c1)CCCC2C1=NCCN1 (stereo not drawn),100
CN1CCSc2ccc(C(=O)NCCN3CCCC3)cc21,99
Cc1ccc(S(=O)(=O)/N=C(\c2ccccc2)N(C)S(=O)(=O)c2ccc(C)cc2)cc1,100
N/C(=N\O)c1ccc(NC(=O)c2ccccn2)cc1,100
CC1=CC(C)(C)NC(=S)N1c1ccc(C(C)C)cc1,101
Cc1cc(C)c(S(=O)(=O)N(CC#N)CC#N)c(C)c1,100

# Copied from the list.
# For VACV E9 pol inh, COc1ccc2oc(=O)c(-c3ccccc3)cc2c1 has the entry 104
# For VACV E9 pol inh, CC1=CC(C)(C)NC(=S)N1c1ccc(C(C)C)cc1 has the entry 101
# For VACV E9 pol inh, N/C(=N\O)c1ccc(NC(=O)c2ccccn2)cc1 has the entry 100
# For VACV E9 pol inh, Cc1ccc(S(=O)(=O)/N=C(\c2ccccc2)N(C)S(=O)(=O)c2ccc(C)cc2)cc1 has the entry 100
# For VACV E9 pol inh, CCc1cccc(C)c1NC(=O)C1COc2ccccc2O1 (stereo not drawn) has the entry 100
# For VACV E9 pol inh, c1ccc2c(c1)CCCC2C1=NCCN1 (stereo not drawn) has the entry 100

# (next part)
SMILES,VACV E9 pol inh
O=C(COC(=O)/C=C/c1cccc(Cl)c1)NC1CCCCC1,97
COc1ccc(CC(=O)N(Cc2nc(-c3ccc(Cl)cc3)no2)C(C)C)cc1OC,101
Cc1ccc(S(=O)(=O)NC(=O)N2CCCC2)cc1,100
N#Cc1ccc(C#N)c(-c2ccccc2)c1,99
O=C(COc1ccc(-c2ccccc2)cc1)NCc1cccnc1,101
Cc1ccc(SC2CN(C(c3ccccc3)c3ccccc3)C2)cc1,78
CC(=O)Nc1ccc(NC(NC(=O)c2cccs2)C(=O)c2ccccc2)cc1 (stereo not drawn),101
COc1ccc(Cl)cc1NC(=O)c1sc2nc(C)n(C)c(=O)c2c1C,104
O=C(NCCN1CCCc2ccccc21)c1cc(-c2cccs2)nc2ccccc12,96
CCOc1ccc(-c2nc(C#N)c(NCCCN(CC)CC)o2)cc1,100
Cn1cc(S(=O)(=O)Nc2ccccc2N2CCOCC2)c(C(F)(F)F)n1,102
Cc1ccc(Cn2c(C)c3cn[nH]c(=O)c3c2C)cc1,105
COc1cccc(C(=O)NCC2(c3ccccc3)CCCC2)c1,96
CC(C)C(=O)Nc1ccc(-c2nc3cccnc3s2)cc1,93
O=C1C=C(NCc2ccco2)CCC1,74
O=C(/C=C/C=C/c1ccc2c(c1)OCO2)N1CCCCC1,101
CC1CCCCN1S(=O)(=O)c1ccc(N)cc1 (stereo not drawn),100
CC(C)c1ccccc1OCC(O)CN(C)C1CCCCC1 (stereo not drawn),96
COC(=O)CNC(c1ccccc1)c1cc(C)ccc1NC(=O)c1ccccc1 (stereo not drawn),98
CN(Nc1ccccc1)C1=C(C#N)CN(C2CCCCC2)C1=O,100
COC(=O)c1ccc(/C=C2/Oc3ccccc3N(Cc3ccccc3F)C2=O)cc1,100
COc1cccc2c1CCN(Cc1ccccc1)C2=O,99
CCC(C)C(=O)Nc1cccc(C(F)(F)F)c1 (stereo not drawn),97
CC(CNS(=O)(=O)c1ccc(-n2cccn2)cc1)c1ccccc1 (stereo not drawn),109
O=C(NC(=O)c1ccccc1Cl)NC1CC1,96
CCOc1ccccc1Nc1nc2ccccc2s1,93
CCc1nn2cc(-c3ccc(Cl)cc3)nc2s1,101
CC1CCCC(C)N1NC(=O)c1ccc(Cl)c(S(N)(=O)=O)c1 (stereo not drawn),101
O=C(O)CCC(=O)Nc1ccc(Oc2ccc(Cl)cc2)cc1,94
O/N=C/c1nc2ccccc2[nH]1,100
CN(C)c1ccc(NC(=O)c2cc(-c3ccccc3)nc3ccccc23)cc1,121
C=CCN1C(=O)CC(C(=O)OCC)=C1C,113
CCCN(CCC)c1ncnc2c1cnn2-c1cccc(C)c1,104
Cc1cc(C2=Nc3ccccc3SC2)ccc1Cl,103
COC(=O)CC1(O)c2ccccc2C(=O)N1Cc1ccccc1 (stereo not drawn),99
CCOC(=O)c1c(CS(=O)(=O)Cc2ccc(Cl)cc2)oc2c(F)c(F)c(F)c(F)c12,98
CCn1c(-c2cccs2)nc2ccccc21,101
Cc1sc(NC(=O)C2CC2)c(C(N)=O)c1C,99
Cc1ccccc1NC(=O)C(CC(C)C)N1C(=O)c2ccccc2C1=O (stereo not drawn),100
Cc1cc2c(c(=O)n1CCN(C)C)C(c1ccncc1)C(C#N)=C(N)O2 (stereo not drawn),97
CC1(C)Cc2c(sc3c2c(=O)n(Cc2ccccc2)c2nncn32)CO1,100
O=C1CN2C(=Nc3ccc(Cl)cc3C2c2ccccc2)CN1 (stereo not drawn),100
O=C(Nc1nc2ccccc2s1)C1c2ccccc2Oc2ccccc21,100
CCc1cc(=O)oc2cc(OCC(=O)c3ccc(F)cc3)ccc12,102
CCc1nn2c(C)cc(=O)[nH]c2c1C,98
O=C1CC(Nc2ccc(N3CCOCC3)cc2)C(=O)N1c1cccc(C(F)(F)F)c1 (stereo not drawn),101
Cn1c(SCC(=O)c2ccc(Cl)cc2)nnc1-c1ncc(C(F)(F)F)cc1Cl,97
COc1ccc(CCNc2nc(SCC(=O)c3ccc(F)cc3)nc3ccccc23)cc1OC,99
OC1(c2ccccn2)COc2ccccc2O1 (stereo not drawn),86
Cc1ccc(SCC(=O)N2CCc3ccccc32)cc1,100

# (next part)
SMILES,VACV E9 pol inh
C(=N\n1cnnc1)/c1ccccn1,101
CCCCCCCC/C=C\CCCCCCCC(=O)OC[C@@H](O)COP(=O)(O)O,100
O=C(Nc1ccc(S(=O)(=O)Nc2nccs2)cc1)c1cc2ccccc2oc1=O,101
CCOc1ccc2ccccc2c1/C=C1\C(=O)NC(=S)N(c2cccc(Cl)c2Cl)C1=O,94
CCCC(=O)NCCc1cc2ccc(OC)cc2[nH]c1=O,101
CC1=CC(C)C2(COC(c3cccnc3)OC2)C(C)C1 (stereo not drawn),99
COCCn1c(C)cc(C(=O)CSc2ccc(Cl)cc2)c1C,100
COc1ccc(-c2nn(C)c3sc(C(=O)NCC4(c5ccccc5)CCCC4)cc23)cc1OC,98
CCOC(=O)c1cnc2cc(C(F)(F)F)ccc2c1N1CC(C)CC(C)C1 (stereo not drawn),97

# Part of the list above in order of count of non-hydrogen atoms, lowest first:
SMILES,VACV E9 pol inh
C(=N\n1cnnc1)/c1ccccn1,101
CC1=CC(C)C2(COC(c3cccnc3)OC2)C(C)C1 (stereo not drawn),99
CCCC(=O)NCCc1cc2ccc(OC)cc2[nH]c1=O,101
O=C(Nc1ccc(S(=O)(=O)Nc2nccs2)cc1)c1cc2ccccc2oc1=O,101

# Source: PubChem (ICCB-Longwood Screening Facility, Harvard Medical School)
